Cruzain Triton = cruzain (T. cruzi) inhibition with detergent; 200,000 compounds, 0.43% hits; P25779; AID 1478; purified cruzain, Z-FR-AMC fluorescence, 0.01% Triton; Potency, µM, for inactives: max response, negative = inhibition, actives largely listed as inhibitors;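 also: plate controls were neutral wells for no effect and buffer without enzyme for full effect; nearly all actives have a fitted effect of over 40% in size; top concentration of the series not given in the record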
Target sequence (P25779 123-467 limits assumed): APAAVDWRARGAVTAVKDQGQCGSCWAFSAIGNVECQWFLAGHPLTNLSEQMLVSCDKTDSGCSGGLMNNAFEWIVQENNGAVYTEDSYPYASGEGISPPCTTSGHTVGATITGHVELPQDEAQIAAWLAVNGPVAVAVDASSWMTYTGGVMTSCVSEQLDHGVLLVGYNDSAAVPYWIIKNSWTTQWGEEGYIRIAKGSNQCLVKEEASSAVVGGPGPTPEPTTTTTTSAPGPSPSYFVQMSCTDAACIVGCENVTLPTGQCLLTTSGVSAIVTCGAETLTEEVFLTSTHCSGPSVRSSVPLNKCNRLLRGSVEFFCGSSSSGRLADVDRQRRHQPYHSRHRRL
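Steps: dispense cruzain (1.5 nM final) in acetate buffer pH 5.5 with DTT and 0.01% Triton X-100; pin-transfer compounds; incubate 15 min RT; add Z-FR-AMC (2 uM final); read fluorescence every 30 s, using the 60 s intensity change.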
LASV entry inh = Lassa virus entry inhibition. Lassa virus pseudotype entry inhibition, cell reporter; control for the full effect not named in the record. 300,000 compounds, 1.2% hits. Potency, µM (titrated, usually from 37.9 µM), without a hit: at the highest dose activity change, negative = inhibition, actives largely listed as inhibitors; active means well fitted inhibition curve with a large enough effect; inconclusive means small, poorly fitted or top-dose-only effect, or effect the other way; inactive means flat fitted curve, though single readings scatter; tested in HEK293 cells; also: % is scaled to controls: 0 for no effect and ±100 for the full control effect; nearly all actives have a fitted effect of over 50% in size; luciferase read-out
MARV entry inh = Marburg virus entry inhibition; 300,000 compounds, 1.8% hits; Potency, µM (top dose mostly 37.8 µM), for inactives: top-dose activity change, negative = inhibition, usual class: inhibitors; Marburg virus pseudotyped entry inhibition, cell reporter; control for the full effect not named in the record; about a third of the inactives were read at about 46 µM; active = well fitted inhibition curve with a large enough effect; inconclusive = small, poorly fitted or top-dose-only effect, or effect the other way; inactive = flat fitted curve, though single readings scatter; tested in HEK293 cells; about a fifth of its hits are not listed in these tables; also: % is scaled to controls: 0 for no effect and ±100 for the full control effect; luciferase read-out
SARS PLpro yeast = inhibitors of SARS-CoV papain-like protease in yeast; S. cerevisiae expressing SARS-CoV PLpro, growth rescue; control for the full effect not named in the record; 330,000 compounds, 0.19% hits; AID 485353; Potency, µM (titrated, usually from 32.9 µM), without a hit: at the top dose activity, positive = growth rescue; active means well fitted rising curve with a large enough effect; inconclusive means small, poorly fitted or top-dose-only effect; inactive means no such curve, though single readings can be large or run the other way; also: 0% is about no effect; nearly all actives have a fitted effect of over 55% in size; growth read by luminescence after 48 h
NS1 function inh = inhibitors of influenza NS1 protein function | S. cerevisiae slowed by influenza A NS1, growth recovery by OD600 | Potency, µM (titrated, usually from 46.1 µM), inactives show at the top dose activity, positive = more growth | 270,000 compounds, 0.4% hits; active means well fitted rising curve with a large enough effect; inconclusive means small, poorly fitted or top-dose-only effect; inactive means no such curve, though single readings can be large or run the other way; also: nearly all actives have a fitted effect of over 50% in size
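Read-out: OD600 growth recovery of NS1-expressing budding yeast. Cells grown overnight at 30C in -URA glucose medium, washed, resuspended and diluted 1:100 in 2% galactose assay medium, pH 6.0. Same strain lacking NS1 served as positive control.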
Cruzain noTriton = inhibitors of Trypanosoma cruzi cruzain without detergent. P25779. purified cruzain, Z-FR-AMC fluorescence, no detergent. Potency, µM, inactives show max response, negative = inhibition, usual class: inhibitors. 200,000 compounds, 2.3% hits;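 also: plate controls were enzyme without inhibitor for no effect and buffer without enzyme for full effect; nearly all actives have a fitted effect of over 40% in size; top concentration of the series not given in the record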
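Detergent-free condition (0.00005% Triton X-100) in acetate buffer pH 5.5 with DTT. 1.5 nM enzyme and compound were pre-mixed 15 min, then 2 uM Z-FR-AMC substrate added; reaction progress from fluorescence change between first and third reads (60 s).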
RE007 growth inh = less growth of the S. pombe RE007 Vpr strain | AID 651644 | 360,000 compounds, 0.21% hits | Potency, µM (doses to about 92.2 µM), for inactives: at the top dose activity change, negative = less growth | S. pombe RE007 Vpr strain, BacTiter-Glo ATP luminescence, 24 h; control for the full effect not named in the record; active = well fitted falling curve with a large enough effect; inconclusive = small, poorly fitted or top-dose-only effect; inactive = no such curve, though single readings can be large or run the other way;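 also: % is scaled to controls: 0 for no effect and ±100 for the full control effect; nearly all actives have a fitted effect of over 50% in size; the assay follows cell death caused by Vpr and the record does not say whether a fall means rescue or toxicity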
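Fission yeast RE007 carrying one integrated HIV-1 vpr copy, seeded at OD 0.01 in PMG+AL medium with 23 nL pinned compound. Grown 24 h at 30 degrees; viability read by BacTiter-Glo luminescence after 5 min.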
StopGo reporter = lowers the luciferase signal of an FMDV 2A StopGo reporter | human cells with a luciferase reporter of 2A StopGo recoding; control for the full effect not named in the record | Potency, µM (titrated, usually from 57.9 µM), without a hit: top-dose signal change, negative = less light | 410,000 compounds, 1.2% hits | AID 1159524; active = well fitted falling curve with a large enough effect; inconclusive = small, poorly fitted or top-dose-only effect; inactive = no such curve, though single readings can be large or run the other way; tested in HEK293T cells; also: % is scaled to controls: 0 for no effect and ±100 for the full control effect; nearly all actives have a fitted effect of over 45% in size; luciferase light after 4 h
An asterisk follows results filed as active; ? = inconclusive; . = no result given; & = joins results of further samples; [ ] = remark or other dose. Unless noted, calls follow the shape of the dose curve; as a rule, active = well fitted curve in the direction sought with a large enough effect; inconclusive = small, poorly fitted or top-dose-only effect, or another doubt; inactive = no such curve, though single readings can be large; an effect the other way counts as inactive or inconclusive. Potency is read from the fitted curve at half-maximal effect.

SMILES | Cruzain Triton | LASV entry inh | MARV entry inh | SARS PLpro yeast | NS1 function inh | Cruzain noTriton | RE007 growth inh | StopGo reporter
CCOc1ccc(C(c2c(O)cc(C)n(Cc3ccco3)c2=O)N2CCN(c3ccccc3)CC2)cc1 (stereo not given) | 3.1% | -1%[46.1 µM] | . | . | . | ? | . | ?
O=C1c2ccccc2CCCC12N=NCC2c1cccc2ccccc12 (stereo not given) | -0.1% | 1% | ? | -30% | -68% | ? | -28% | ?
CCN(c1cccc(C)c1)S(=O)(=O)c1c(C)[nH]c(C)c1C(=O)N1CCCCC1 | . | -9%[46.1 µM] | -12%[46.1 µM] | -6% | -10% | . | 8% | 22%
COc1ccc(CCNC(=O)CNC(=O)c2ccc3c(c2)OCO3)cc1OC | . | -1% | 2%[46.1 µM] | 26% | 27% | . | 9% | 3%
O=C(COC(=O)c1ccccn1)NCCCc1ccccc1 | 9.4% | -8% | -3% | -9% | -2% | 7% | -11% | -11%
COc1cccc(-c2csc(N3CCN(C(=O)C4CCCCC4)CC3)n2)c1 | -10% | ? | -25% | -10% | -33% | -17% | -6% | -21%
CC(=O)c1c(C)[nH]c(C(=O)NCc2cccc(Cl)c2)c1C | . | -5% | -16%[46.1 µM] | -5% | . | . | 2% | 13%
O=C(Nc1ccc(CSc2ccccc2)cc1)c1ccc(CN2CCOCC2)cc1 | -1.7% | -20% | ? | -4% | 10% | 4% | 1% | 5µM*
Cc1[nH]c(=O)[nH]c(=O)c1S(=O)(=O)NCCc1ccc(S(N)(=O)=O)cc1 | 3.2% | 0% | ? | 1% | 0% | 3% | -8% | -12%
COc1ccc(C(C#N)N2N=C(c3ccccc3)CC2c2ccccc2)cc1OC (stereo not given) | -7.5% | 3% | ? | 10% | -2% | -2% | -25% | -5%
CCSc1nnc(NC(=O)c2cccc(S(=O)(=O)N(C)c3ccccc3)c2)s1 | -3.5% | 4% | -14% | 3% | -1% | 2% | -10% | -10%
COc1cc(OC)c(/C=N/NC(=O)c2ccncc2)c(OC)c1 | . | -1% | -15% | 2% | -3% | . | -6% | -10%
CCCC(C1=C(O)CC(C)(C)CC1=O)C1C(=O)CC(C)(C)CC1=O (stereo not given) | -3.7% | -1% | -9% | 16% | 12% | -7% | 49% | -12%
CC1(C)CC(O)C(C)(C)N1O (stereo not given) | 6.5% | 1% | -1% | 5% | 1% | -12% | 9% | 28%
COc1ccc(NC(=O)C2CCC(N3C(=O)C4C5C=CC(C5)C4C3=O)CC2)cc1 (stereo not given) | 4.4% | 7% | 17%[46.1 µM] | -7% | 5% | -1% | 8% | -29%
CCOc1ccc2[nH]c(=O)c(CN(Cc3cccs3)Cc3nnnn3C(C)(C)CC)cc2c1 | -6.2% | ? | ? | -2% | -47% | ? | -1% | .
COC(=O)c1ccc2c(c1)N(C)C(=O)CS2 | -5.3% | -11% | 5% | -7% | -1% | 9% | -9% | 8%
CCCn1nnnc1NC(=O)c1ccc2ccccc2c1 | -4.9% | -19% | -38% | 15% | -60% | 2% | 2% | 37%[activator]
CC(=O)NNC(=O)c1csc(Cc2c(Cl)sc3ccc(Cl)cc23)n1 | . | . | . | -9% | -7% | . | 8% | -13%
N#C/C(=C/c1ccc(N2CCCCC2)o1)C(=O)Nc1ccc(Cl)cc1 | -1.6% | ? | 3% | 5% | -5% | -30% | -17% | 48%[activator]
O=C(Nc1ccc(Nc2ccccc2)cc1)c1c(F)c(F)c(F)c(F)c1F | . | -10% | -1% | -2% | -11% | . | 2% | ?
CCC(CC)C(=O)NC1CC(=O)N(c2ccc3c(c2)OCCO3)C1 (stereo not given) | -1.1% | 6%[46.1 µM] | . | . | . | 6% | . | -19%
COC(=O)/C=C1/S/C(=N/NC(=O)c2ccc(OC)cc2)NC1=O | . | ? | ? | 2% | -9% | . | 13% | -5%
O=C(NC1CC1)c1ccc(CN(c2ccccc2)S(=O)(=O)c2ccccc2)cc1 | . | ? | ? | -1% | -3% | . | 3% | -29%
CCc1ccc(C(=O)c2cn(CC(=O)Nc3ccc4c(c3)OCO4)c3ccc(Cl)cc3c2=O)cc1 | 0.3% | 16%[46.1 µM] | 11%[46.1 µM] | . | . | -6% | . | -18%
SMILES | Cruzain Triton | LASV entry inh | MARV entry inh | SARS PLpro yeast | NS1 function inh | Cruzain noTriton | RE007 growth inh | StopGo reporter
O=C(Nc1cccc(Cl)c1)c1c(O)c2c(n(Cc3ccccc3)c1=O)CCCC2 | -0.5% | -8% | -8% | 0% | -2% | 16µM* | . | .
O=C(COc1ccc(C(=O)NCC2CCCO2)cc1)Nc1cccc(C(F)(F)F)c1 (stereo not given) | . | -11%[46.1 µM] | -4% | 3% | . | . | 3% | ?
Cc1noc2ncnc(Sc3c(Cl)cccc3Cl)c12 | 0.5% | -27% | ? | -1% | 2% | -3% | 13% | ?
CCOC(=O)c1ccc(NC(=O)CC2C(=O)N(c3ccc(F)cc3)C(=O)N2CCCOC)cc1 (stereo not given) | -1.6% | 18%[14.3 µM] | -1% | 6% | -8% | ? | -2% | 15%
Cc1cc(C)cc(OCC(=O)OCC(=O)NCc2ccco2)c1 | 2.3% | 13% | 26% | -12% | -9% | -16% | -11% | -23%
COc1ccc(CN2CC(C(=O)NCc3ccccn3)CC2=O)cc1 (stereo not given) | 7.1% | 1% | 7% | 0% | 2% | 0% | -1% | 1%
Fc1cccc(/C=N/Nc2cc(N3CCOCC3)ncn2)c1 | . | ? | ? | 2.8µM* | 13% | . | -10% | 65%[activator]
Cc1cccc(C(=O)NN2S(=O)(=O)c3ccccc3S2(=O)=O)c1 | . | -1%[46.1 µM] | -3%[46.1 µM] | -5% | . | . | 0% | 21%
CN(C)C(=S)Nc1ccc([N+](=O)[O-])cc1 | -5.3% | 1% | 22% | -1% | -6% | -10% | -5% | 7%
COc1ccccc1CN(C)C(=O)CN1C(=O)c2ccccc2C1=O | . | 13% | 12%[46.1 µM] | 6% | 10% | . | -8% | 0%
CC(C)Oc1cccc(C(=O)NC(=S)Nc2ccc3c4c(cccc24)CC3)c1 | 0.4% | -4% | -5% | -1% | 14% | ? | -13% | -19%
Cc1ccc(S(=O)(=O)N(C)C)cc1NC(=O)COC(=O)Cc1ccsc1 | . | 6% | 19% | . | . | . | 11% | -12%
Cc1ccc(-c2nn(C)c(=O)c3ccccc23)cc1CNC(=O)c1ccccc1 | . | 11µM* | ? | 0% | 5% | . | -2% | -19%
Cc1nc(-c2noc(-c3cccc(Cl)c3)n2)c(C(F)(F)F)o1 | . | 17%[46.1 µM] | 20%[46.1 µM] | 0% | -5% | . | 6% | 9%
CCN(Cc1cc2ccc(C)cc2[nH]c1=O)C(=O)c1cccnc1 | 4.3% | . | . | -2% | -4% | 3% | . | .
COc1ccc(C(=O)N/C(=C\c2cn(C)c3ccccc23)C(=O)N2CCN(C)CC2)cc1OC | . | . | . | -1% | 2% | . | -6% | -26%
CCOC(=O)c1cc2[nH]c3ccccc3c2[n+](-c2ccc([N+](=O)[O-])cc2)c1N | -6.5% | -9% | ? | 0% | -2% | -1% | -6% | ?
O=C(Cn1cnc2ccccc2c1=O)c1ccc2ccccc2c1 | -2.0% | 23% | 7% | . | -45% | -13% | -7% | -13%
CC(C)c1nnc(SCC(=O)Nc2ccc3c(c2)OCO3)n1C | 3.2% | 3% | 2%[46.1 µM] | -10% | 5% | -3% | -5% | -4%
c1cc2c(cc1C1=Nn3c(nnc3C3CCCCC3)SC1)OCO2 | -5.8% | ? | ? | -1% | 0% | -12% | 4%[3.69 µM] | 29%
CC(C)c1ccc(NC(=O)C2CCN(C(=O)c3ccc(F)cc3)CC2)cc1 | -5.5% | 5%[46.1 µM] | 14%[46.1 µM] | . | . | 27% | . | -19%
Cc1ccc(NC(=O)c2ccc(C(=O)c3ccccc3)cc2)nc1 | . | ? | -16%[46.1 µM] | -9% | . | . | -17% | -11%
COc1ccc(/C=C/C(=O)Nc2ccc(-n3nncc3-c3ccccc3)cc2)cc1OC | 3.2µM* | ? | ? | ? | 10% | 16µM* | 4% | -8%
CCOC(=O)C1=C(N)Oc2cc(O)ccc2C1c1ccc(C)cc1 (stereo not given) | . | -4% | -8% | -3% | -3% | . | 1% | 0%
CCc1cccc(C)c1Nc1c(-c2ccc(N(C)C)cc2)nc2ncccn12 | -11% | ? | ? | . | . | -16% | . | -23%
SMILES | Cruzain Triton | LASV entry inh | MARV entry inh | SARS PLpro yeast | NS1 function inh | Cruzain noTriton | RE007 growth inh | StopGo reporter
NC(=O)COC(=O)c1cccc(S(=O)(=O)N2CCCCC2)c1 | . | -3%[46.1 µM] | -2%[46.1 µM] | 0% | 9% | . | 4% | -17%
O=C(c1ccccc1Cc1ccccc1)N1CCN(S(=O)(=O)c2ccccc2Br)CC1 | . | -16%[46.1 µM] | 13µM* | -13% | . | . | 17% | ?
O=C(NCC(c1ccc2c(c1)OCO2)N1CCN(c2ccccc2F)CC1)c1ccccc1F (stereo not given) | -6.2% | ? | . | . | . | 7% | . | -23%
Cc1n[nH]c(C)c1S(=O)(=O)N1CCCC(C(=O)Nc2ccc(Br)cc2)C1 (stereo not given) | -4.3% | -11%[46.1 µM] | -1%&-1%[46.1 µM] | 0% | -2% | -1% | 6% | ?
O=C(NCCCN1CCOCC1)c1ccccc1N1C(=O)[C@@H]2Cc3c([nH]c4ccccc34)C(c3cccc(Cl)c3)N2C1=O (stereo not given in full) | . | . | . | 6% | -2% | . | 7% | -30%
C/C(N)=C(/C#N)C(=O)COC(=O)C1CCC(C(C)(C)C)CC1 (stereo not given) | -7.9% | ? | -2% | -24% | -15% | ? | -7% | -20%

Screening results (PubChem)
